# A1 inh = caspase 3/7 activation in MEF A1-2A-BIM cells, primary screen, A1 inhibitor project, cell-based, luminescence, HTS. Caspase-Glo 3/7 luminescence, 3 h; percent of clofoctol response, vehicle zero. caspase activation, % (test concentration not listed). hit rate 0.066% among 330,000;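 active = over half of replicate activation scores above 10%, or exactly half above 10 with the replicate mean above 10; inconclusive = replicate mean below 10 yet half the replicates above 10; inactive = over half of replicates below 10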;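 also: wells of about 30 µL received 50 nL stock; many hits fall short of the cut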
# T cruzi repl = inhibitors of intracellular T. cruzi growth, primary screen, luminescence, NIH3T3 host cells; T. cruzi beta-gal in NIH3T3, 90 h; hit rate 1.4% among 300,000; inhibition, % (no concentration beside the values); AID 1885, 2009;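 active = mean inhibition across valid replicates above about 55%, limit read from the data; inconclusive = mean below that limit but half or more replicates reach it; inactive = mean below it, under half of replicates reach it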;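 also: signal also drops with host cell toxicity which is not excluded here; 0% = plate median of DMSO wells and 100% = zero luminescence signal; higher percent means less beta-gal luminescence so fewer parasites; stock transfer was 50 nL into about 50 µL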
# AF4-AF9 inh = inhibitors of AF4 peptide binding to AF9, primary screen, biochemical, AlphaScreen, biotin-AF4 peptide, FLAG-AF9, single point; Protein AF-9 (Homo sapiens), P42568; inhibition, % at 10 µM; hit rate 0.47% among 350,000; AID 651704, 2012;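 active = every replicate reaching a set inhibition limit, whatever the replicate mean, cut at about 25% in these data; inconclusive = mean inhibition reaches that limit but some replicates miss it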;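 also: 0% = plate neutral control median and 100% = total signal loss; the record names both 10 and 1 µM as test concentration; the first replicate is given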
# Target sequence (P42568 whole entry, looked up): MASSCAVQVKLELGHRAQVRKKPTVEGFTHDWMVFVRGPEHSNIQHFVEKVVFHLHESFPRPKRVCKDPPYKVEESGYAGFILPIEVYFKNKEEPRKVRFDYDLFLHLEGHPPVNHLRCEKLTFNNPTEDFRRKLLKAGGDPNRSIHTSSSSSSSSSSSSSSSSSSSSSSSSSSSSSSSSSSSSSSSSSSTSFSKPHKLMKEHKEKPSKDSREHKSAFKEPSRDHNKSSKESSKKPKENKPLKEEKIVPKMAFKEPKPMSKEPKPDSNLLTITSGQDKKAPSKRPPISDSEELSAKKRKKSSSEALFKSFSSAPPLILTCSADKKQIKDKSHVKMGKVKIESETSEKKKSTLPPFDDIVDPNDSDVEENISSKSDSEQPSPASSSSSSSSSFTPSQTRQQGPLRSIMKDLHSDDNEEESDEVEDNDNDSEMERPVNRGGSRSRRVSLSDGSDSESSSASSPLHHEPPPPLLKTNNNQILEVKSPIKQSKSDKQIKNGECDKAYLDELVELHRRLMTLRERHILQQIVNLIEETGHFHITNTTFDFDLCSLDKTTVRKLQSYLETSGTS
# Calb FLC = C. albicans growth inhibition with fluconazole, primary screen, CaCi-2 strain, Alamar Blue fluorescence | C. albicans CaCi-2 (fluconazole-resistant clinical isolate) + fluconazole, 48 h | hit rate 0.57% among 300,000 | AID 1979, 2009 | growth inhibition, % (concentration not given with the values);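 active = most replicates above 75%; inconclusive = exactly half above 75%; inactive = most below 75%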;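 also: all wells also contain fluconazole at 8 µg/ml as a sub-toxic cotreatment; 0% = median of DMSO wells and 100% = median of geldanamycin control wells; wells of about 8 µL received 7.5 nL stock; the first replicate is given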
# RanGTP-Impb inh = inhibitors of RanGTP-importin-beta interaction, primary screen, biochemical, FRET, CFP-Ran, YFP-importin-beta, homogeneous. Ran GTPase (GTP-bound) - importin-beta complex. cell-free CFP-Ran/YFP-importin-beta FRET ratio. inhibition, % (test concentration not listed). hit rate 1.1% among 300,000. AID 2216, 2009;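 active = most replicates above 15%; inconclusive = exactly half above 15%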;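 also: 0% = DMSO wells and 100% = Ran loaded with GDP instead of GTP; wells of about 40 µL received 100 nL stock; the first replicate is given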
# rRNA inh HTS = reduced GFP signal of wild-type E. coli, primary screen, bacterial rRNA inhibitor project, GFP/RFP fluorescence, OD600, single point; E. coli WT GFP vs humanized-ribosome RFP mutants, 24 h; stronger effect = lower value; DMSO median 0, no signal -100; GFP signal change (wild-type ribosome), % (test concentration not listed); hit rate 1.6% among 350,000;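 active = significant combined selectivity score with lowered wild-type GFP, culture density cut under 30%, mutant RFP and density less affected; inactive = any of these conditions unmet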; also: one replicate is shown; some compounds called inactive have numbers as strong as hits
# Beta apoptosis = inhibitors of cytokine-induced beta cell apoptosis, primary screen, luminescence; INS-1E cytokine-induced death, ATP luminescence, 48 h; percent of positive-control rescue, neutral wells zero; AID 435005, 2010; protection from apoptosis, % (test concentration not listed); hit rate 0.8% among 300,000;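 active = all replicates at 75% or more, or half of them and the mean; inconclusive = half reach 75% but not the mean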;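 also: 0% = cytokine-treated negative control wells and 100% = positive control rescue; higher means more ATP so stronger rescue from cytokine killing; wells of about 40 µL received 100 nL stock; the first replicate is given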
# Vif A3G = inhibitors of Vif binding to APOBEC3G peptide, primary screen, biochemical, TR-FRET, GST-Vif 1-94, biotin-A3G peptide, dose response retest (AID 1117319); Virion infectivity factor (Human immunodeficiency virus type 1 group M subtype B (isolate …; TR-FRET GST-Vif / biotin-A3G peptide binding; higher % means a stronger effect; test concentration not given here; strong numbers were not always called active; inhibition, %, or IC50 in µM where a hit was titrated; hit rate 0.57% among 260,000;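 active = above the screen mean plus three standard deviations and confirmed in dose response; inconclusive = results disagree or hit not tested in dose response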;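 also: Vif residues 1-94 fused to GST binding biotinylated APOBEC3G peptide 110-148; 0% = full assay without inhibitor and 100% = GST in place of GST-Vif; retest series ran down from 100 µM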
# rRNA inh HTS OD600 = further read-out of rRNA inh HTS, marked with its call; OD600 change, %; measured here: OD600 growth;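 optical density of the mix in the first replicate; 0 = DMSO median and -100 = no signal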
# rRNA inh HTS RFP = also measured in rRNA inh HTS; calls as there; RFP signal change, %; measured here: RFP humanized mutant strains;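 first replicate; 0 = DMSO median and -100 = no signal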
# The depositor's hits bear a star; ? = inconclusive; · = no result given; & = joins results of further samples. An excerpt; the hit share may differ from the screen's.
nr	molecule	A1 inh	T cruzi repl	AF4-AF9 inh	Calb FLC	RanGTP-Impb inh	rRNA inh HTS	rRNA inh HTS OD600	rRNA inh HTS RFP	Beta apoptosis	Vif A3G
1	Cc1cc(C)cc(-n2ncc3c2CCCC3NC(=O)C2(C(N)=O)CC2)c1 (centres undefined)	-0.1	-7	-5.2	16	2.6	0	-6	1.2	-1	·
2	Oc1c(CN2CCOCC2)ccc2ccccc12	·	-24	2.6	17	3.4	11	3	5.3	·	·
3	CC1Cc2ccccc2N1C(=O)C1CCCCN1S(=O)(=O)c1ccccc1 (centres undefined)	-0.4	1	·	-21	6.4	·	·	·	0	0%
4	CC(C)CN(C(=O)COC(=O)c1ccc(Br)cc1)c1c(N)n(Cc2ccccc2)c(=O)[nH]c1=O	0.8	-17	2.6	-4	3.9	8	19	-0.7	20	0%
5	Cc1ccc(NS(=O)(=O)c2ccc(C(=O)OCC(=O)Nc3cc(C)on3)cc2)cc1	·	-1	-0.9	12	-2.8	8	2	-2.8	·	·
6	COC(=O)C1=C(C)NC(=O)NC1c1ccc(OC(=O)c2ccco2)cc1 (centres undefined)	-0.1	2	-2.6	-8	0.1	18	5	1.0	5	-3%
7	CCOc1ccccc1NC(=O)C(c1ccccc1)N1CCN(CC(=O)N2CCOCC2)CC1 (centres undefined)	0.6	·	0.9	·	·	3	2	-0.1	-3	-22%
8	Cc1ccc(C(=O)O)cc1-c1ccc(/C=C2/NC(=O)N(c3ccccc3)C2=O)o1	-0.1	-3	·	4	20*	·	·	·	1	25µM*
9	COc1ccc(C)cc1NC(=O)CN1C(=O)COc2ccc(S(=O)(=O)N3CCCCCC3)cc21	0.0	7	1.4	-6	-3.9	13	14	1.5	-1	1%
10	CCOC(=O)C(=O)N1CCC(Cc2ccccc2)CC1	0.2	-5	0.6	-1	4.2	-5	-21	-2.5	1	13%
11	CCCCN(CCNP(=O)(OCC)OCC)CP(=O)(OCC)OCC	-0.8	1	·	-14	0.8	·	·	·	-4	-4%
12	CCC(CC)c1nnc(NC(=O)C2CC(=O)N(C3CCCC3)C2)s1 (centres undefined)	0.8	4	0.1	0	0.8	5	11	1.1	1	0%
13	O=C(Cn1nc(-c2ccccc2)ccc1=O)NCCCN1CCOCC1	-0.3	-2	-1.2	0	-0.5	16	14	3.1	-2	-9%
14	O=S(=O)(Cc1ccccc1)Nc1ccccc1Br	1.0	0	-1.0	-8	-0.9	0	8	-4.7	-2	·
15	Cc1cc(NS(=O)(=O)c2ccccc2)no1	0.1	5	2.1	0	-2.1	6	26	1.7	1	25%
16	O=C(Nc1ccccc1)N1CCSc2ccccc21	-0.2	-7	3.0	19	0.8	17	8	2.7	14	·
17	COCCN(C(=S)Nc1cccc(OC)c1)C1CCN(C(C)C)CC1	0.0	6	-4.1	5	-2.8	9	1	-3.6	-6	-1%
18	CCCCn1c(SCc2ccc(C(=O)OC)o2)nc2cc(S(N)(=O)=O)ccc21	-0.7	-12	·	-4	2.6	·	·	·	·	5%
19	CCOC(=O)C1CCCN(Cc2cc(OC)c(O)c(OC)c2)C1 (centres undefined)	-0.9	29	·	7	?	·	·	·	-1	2%
20	Cc1ccc(NC(=O)NCc2ccncc2)cc1Cl	-0.2	-23	-0.6	?	?	-24	-20	-3.9	1	-6%
21	COc1ccc(CCN2CCC(Nc3nc4ccccc4n3Cc3ccc(F)cc3)CC2)cc1	0.3	36	12	·	11	-56	-79	-15	26	6%
22	C=C(Br)CN1CCN(CC(=C)Br)CC1	-0.1	-9	·	-4	-1.8	·	·	·	-8	8%
23	c1ccc(-c2nc(NCc3cccs3)c3ccccc3n2)cc1	0.0	29	-3.1	-3	0.6	-67	-79	-21	4	?
24	CCNc1nc(SC(C(C)=O)C(C)=O)nc(N(C)C)n1	1.2	-14	·	-17	3.4	·	·	·	-3	11%
25	COCCCn1c(=O)c2ccccc2c2ccccc2c1=O	0.0	1	·	-5	2.4	·	·	·	-3	?
26	O=C(Cc1ccc(Br)cc1)OCC(=O)N1CCOCC1	-0.9	·	5.1	·	·	5	10	-2.4	2	·
27	O=C(NCCc1ccccc1)C1CCN(S(=O)(=O)c2ccccc2)CC1	-0.2	2	·	2	-0.5	·	·	·	5	2%
28	CC(=O)c1cccc(NC(=O)CSc2nnnn2C2CCCC2)c1	·	0	0.7	-7	-4.6	2	-12	-0.4	·	0%
29	CN(C)C(CNc1ncnc2ccccc12)c1c(F)cccc1Cl (centres undefined)	0.6	-4	2.7	-1	3.3	3	2	0.1	-2	·
30	Cc1nc2ccc(NC(=O)c3cccc(S(=O)(=O)N4CC(C)OC(C)C4)c3)cc2s1 (centres undefined)	0.6	19	·	15	9.8	·	·	·	0	5%
31	Clc1ccc(Oc2nc3c(Cl)cccc3s2)cc1Cl	-0.3	7	-6.6	-1	6.7	0	4	0.1	3	-11%
32	C=C(C)c1sc(-c2ccccc2)nc1C	-0.2	3	-4.2	-1	0.0	3	9	1.3	-3	·
33	CC(=O)N(CN1C(=O)c2ccc([N+](=O)[O-])cc2C1=O)c1cccc(C(=O)O)c1	-0.4	-10	-1.8	0	0.3	15	13	-2.1	-4	·
34	CCOc1ccccc1NC(=O)COc1cccc(-n2cnnn2)c1	1.3	8	·	10	1.7	·	·	·	-1	-6%
35	CN(C)c1ccnc(Nc2ccc(F)cc2)c1C#N	-0.1	-8	-1.2	?	-0.3	21	10	2.9	-3	-10%
36	CC(=O)N1CCN(c2ccc(NC(=S)NC(=O)c3ccc(C)c([N+](=O)[O-])c3)cc2)CC1	1.1	·	3.4	0	-1.0	·	·	·	12	0%
37	Cn1c2ccccc2c2cc(C(=O)NNC(=O)CCl)sc21	-0.3	33	1.3	6	-0.5	-7	-15	-6.6	2	20%
38	CCc1nnc(NC(=O)CCC(=O)N2CCCC(O)C2)s1 (centres undefined)	-0.3	-10	-4.1	1	2.5	10	8	-1.6	-9	·
39	Cc1[nH]c(=O)[nH]c(=O)c1S(=O)(=O)Nc1ccc(Cl)c([N+](=O)[O-])c1	0.4	5	0.7	-8	0.9	15	16	2.4	2	-4%
40	CCCc1nc(SCC(=O)c2ccc(F)cc2)c2ccccc2n1	0.0	26	1.8	1	0.7	-26	-27	-1.5	-10	13%
41	O=S(=O)(Cc1cc(N2CCOCC2)nc(-c2ccccn2)n1)c1ccccc1	0.1	6	-0.8	6	2.5	10	0	-0.1	9	0%
42	COc1ccc(C(=O)NCCn2cc(SCC(=O)NCc3ccco3)c3ccccc32)cc1	2.1	-6	·	0	-0.5	·	·	·	-7	7%
43	O=C1CCC/C=C\C[C@@H](CC(=O)N(CCO)Cc2ccccc2)C(=O)N[C@H](c2ccccc2)CO1	-0.5	·	1.4	·	·	2	9	4.2	4	·
44	Cc1noc(/C=C/N(C)C)c1S(=O)(=O)N1CCC(C(=O)Nc2ccc(Cl)cc2)CC1	-1.3	-15	0.9	29	-4.0	2	-4	5.8	-1	·
45	C/C(=C\C(=O)O)C12CC3CC(CC(C3)C1)C2	0.1	-3	·	1	0.0	·	·	·	0	2%
46	Cc1ccc(S(=O)(=O)NC(=O)c2ccccc2F)cc1	-0.1	3	-2.2	0	-0.3	19	2	-1.3	-4	·
47	CC(=O)Nc1ccc(NC(=O)C(C)OC(=O)C2(c3ccccc3F)CCCC2)cc1 (centres undefined)	-0.2	·	-1.4	·	·	1	2	-3.1	-1	-1%
48	OCCNCCCCOc1ccc(OCc2ccccc2)cc1	-0.3	42	12	-1	3.4	10	-10	-4.4	7	20%
49	CCc1ccc(C(C(=O)NC2CCCCC2)N(C(=O)c2ccccn2)c2cccnc2)cc1 (centres undefined)	0.0	-3	·	-4	-3.0	·	·	·	-8	·
50	CCOC(=O)Cn1ncc2c(=O)oc3ccccc3c21	1.0	-10	·	8	0.4	·	·	·	-2	-1%
51	COCCNC(=O)c1csc2c1CCCC2	-0.8	-16	·	18	2.0	·	·	·	-7	3%
52	CCOC(=O)CNC(=O)CNC(=O)c1ccc(OC)cc1	0.4	-3	·	2	2.5	·	·	·	-1	3%
53	CC(CCc1ccccc1)NC(=O)N1CCOCC1 (centres undefined)	0.3	-15	·	4	8.2	·	·	·	2	·
54	O=C(OCc1ccccc1C(F)(F)F)c1cc([N+](=O)[O-])ccc1N1CCOCC1	0.0	16	0.8	-2	-3.3	-20	-19	-6.0	-3	·
55	CNC(=O)c1c(NC(=O)c2ccc(S(=O)(=O)N3CCCC3)cc2)sc2c1CCN(C(C)C)C2	0.2	18	-6.0	7	13	-4	1	-2.2	6	·
56	O=C(Nc1ccc(O)c2c(=O)cc(-c3cccc(Cl)c3)oc12)c1cccc(Cl)c1	15*	-1	·	-5	-4.9	23	23	5.8	·	·
57	COc1ccc(NC(=O)c2cccc3c2C(=O)c2ccc(-c4cnc(OC)nc4)cc2S3(=O)=O)cc1	0.2	·	-4.0	·	·	4	9	-4.3	2	·
58	COc1ccc(CCNC(=O)c2cc(-c3cc(Cl)cc(Cl)c3)oc2C)cc1	-0.2	-8	·	0	3.8	·	·	·	1	-7%
59	CCOC(=O)c1c(-c2ccc(C)o2)csc1NC(=O)CN1CCOCC1	-0.1	10	·	5	0.9	·	·	·	1	1%
60	NC(=O)NC(=O)COC(=O)CCCCCNS(=O)(=O)c1ccc2c(c1)OCCO2	0.2	4	0.6	2	2.0	-6	-9	-4.9	-2	-3%

# Following part.
nr	molecule	A1 inh	T cruzi repl	AF4-AF9 inh	Calb FLC	RanGTP-Impb inh	rRNA inh HTS	rRNA inh HTS OD600	rRNA inh HTS RFP	Beta apoptosis	Vif A3G
61	CCOC(=O)N1CCN(C(=O)c2ccc3nc4ccc(Cl)cc4c(=O)n3c2)CC1	1.3	-6	·	-1	3.9	·	·	·	-4	7%&-4%
62	C/C(=N\NS(=O)(=O)c1ccc(C)c([N+](=O)[O-])c1)c1cccs1	-1.0	-12	-1.5	11	4.5	17	12	0.5	·	2%
63	CCN(C(=O)CSc1nc2ccccc2c(=O)n1CCOC)C1CCS(=O)(=O)C1 (centres undefined)	1.0	-1	-3.5	18	-1.9	4	16	-3.1	-1	4%
64	CC(C)n1nnnc1SCC(=O)NCc1ccco1	-0.1	-8	·	-1	0.0	·	·	·	-5	20%
65	Cn1cc(C(=O)N2CCCCC2)c(=O)c2cc(S(=O)(=O)N3CCCC3)ccc21	-1.2	-16	-1.1	5	-2.2	10	18	-1.9	-7	-1%
